High-throughput results deposited in PubChem by National Center for Advancing Translational Sciences (NCATS).
Menin-MLL FL inh – menin-MLL binding inhibition, fluorescein peptide. 290,000 tested, under 10 active. FP activity change, % at 61.4 µM. Fluorescence polarization, fluorescein-MLL peptide displacement from menin; inconclusive = falling polarisation curve, or a change in total fluorescence; inactive = total fluorescence flat and polarisation flat or rising; no compound was filed as active; the % refers to the polarisation; negative = inhibition;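 note: % of control where 0% means no effect; inhibitors lower the polarisation; unlabelled MLL peptide was the positive control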
TRPML1 blocker – blocks the human TRPML1 channel; Q9GZU1; actives 0.02% (n = 390,000); AID 624415; activity change, negative = inhibition, % (no concentration beside the values); TRPML1-inducible cells, Ca2+ dye fluorescence, FDSS; hits give low values; inhibition of EC80 agonist-evoked calcium signal; in the data active means activity change below about -50%; inconclusive means about -30% to -50%; inactive means above about -30%;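 note: stimulus is agonist 54-4 at its EC80 concentration; % is set by controls: 0 for no effect and ±100 for the full control effect; compound concentration not given in the record; the text of the record puts the active cut at -80%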
Target sequence (Q9GZU1 whole entry, looked up): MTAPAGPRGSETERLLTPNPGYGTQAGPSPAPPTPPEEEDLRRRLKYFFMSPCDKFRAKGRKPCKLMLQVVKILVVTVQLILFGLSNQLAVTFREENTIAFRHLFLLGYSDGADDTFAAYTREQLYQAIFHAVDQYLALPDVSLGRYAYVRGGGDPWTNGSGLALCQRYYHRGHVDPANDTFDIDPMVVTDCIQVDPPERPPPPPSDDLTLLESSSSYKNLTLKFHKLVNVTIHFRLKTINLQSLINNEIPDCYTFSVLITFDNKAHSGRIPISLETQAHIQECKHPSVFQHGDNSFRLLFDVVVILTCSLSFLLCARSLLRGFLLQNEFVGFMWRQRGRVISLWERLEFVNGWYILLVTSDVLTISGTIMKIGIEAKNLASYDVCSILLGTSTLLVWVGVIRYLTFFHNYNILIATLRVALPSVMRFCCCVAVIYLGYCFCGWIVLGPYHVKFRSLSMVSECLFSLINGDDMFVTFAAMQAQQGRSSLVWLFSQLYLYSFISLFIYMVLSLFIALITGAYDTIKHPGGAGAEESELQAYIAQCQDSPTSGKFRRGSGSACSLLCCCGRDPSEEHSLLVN
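Calcium fluorescence in TRPML1-DL cells induced overnight with Tet: a 110 s read after compound pin addition, then a 110 s antagonist read after challenge with 54-4 at 4 uM final (EC80).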
ClpP mod – qHTS Assay for Activators of ClpP. Potency, µM (top dose mostly 57.5 µM), for inactives: at the top dose activity change, negative = active. actives 1.9% (n = 340,000). purified B. subtilis ClpP, FRET peptide cleavage, 20 min. ATP-dependent Clp protease proteolytic subunit (Bacillus subtilis (strain 168)), P80244; active = well fitted falling curve with a large enough effect; inconclusive = small, poorly fitted or top-dose-only effect; inactive = no such curve, though single readings can be large or run the other way; note: potency is the fitted concentration of half-maximal effect; the source files actives as falling curves though it sought activators and does not explain the sign; nearly all actives have a fitted effect of over 65% in size; many hits overshoot -100%
Target sequence (P80244 whole entry, looked up): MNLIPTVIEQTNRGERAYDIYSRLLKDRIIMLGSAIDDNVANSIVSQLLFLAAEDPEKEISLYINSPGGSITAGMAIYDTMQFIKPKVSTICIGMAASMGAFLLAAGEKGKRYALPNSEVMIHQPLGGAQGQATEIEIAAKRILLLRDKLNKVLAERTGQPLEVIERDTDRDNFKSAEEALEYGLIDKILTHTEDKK
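Buffer: 100 mM Tris/HCl pH8, 100 mM KCl, 0.05% low protease BSA, 2.5% glycerol, 0.01% Tween-20. ClpP 10 microg/mL final; 20 min RT; delta FRET normalized to ADEP and DMSO controls.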
gsp antag – antagonizes gsp, the McCune-Albright syndrome mutation; gsp-mutant cells, cAMP HTRF, 30 min; control for the full effect not named in the record; Potency, µM (top dose mostly 76.9 µM), for the others: at the highest dose activity change, negative = inhibition, most hits filed as inhibitors; actives 0.4% (n = 340,000); AID 624288; active = falling curve of any shape with a large fitted effect; inconclusive = falling curve, mostly with a smaller effect; inactive = flat or rising curve; cell line not stated here;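 note: intracellular cAMP measured with PDE inhibitor Ro 20-1724 present during compound exposure; potency is the fitted concentration of half-maximal effect; % is set by controls: 0 for no effect and ±100 for the full control effect; nearly all actives have a fitted effect of over 65% in size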
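G418-selected cells were plated in DMEM/10% FBS for 16-24 h at 37C, then treated with compounds plus the PDE inhibitor […] (300 uM solution added) for 30 min at 37C. Intracellular cAMP was measured by HTRF after 30 min lysis at room temperature.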
TRPML1 ag – agonists of human TRPML1 channel | Q9GZU1 | TRPML1-expressing cells, Ca2+ dye fluorescence, FDSS; host cell line not named in the record; reference of the full effect not given here | activation, % (test concentration not listed) | actives 0.12% (n = 410,000) | AID 624414; in the data active = activation above about 50%; inconclusive = about 30% to 50%; inactive = below about 30%; note: 0% is about no effect; the text of the record puts the active cut at 80%
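In this qHTS format, compounds were pin-transferred onto Ca8-dye-loaded TRPML1-DL cells induced with Tet overnight, and intracellular Ca2+ fluorescence was recorded kinetically for 110 s after a 10 s baseline. A subsequent 4uM final 54-4 (EC80) addition followed by a second 110 s read served as the antagonist phase.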
gsp ag – gsp mutant agonism | gsp mutant cells, cAMP HTRF, 30 min; control for the full effect not named in the record | Potency, µM (doses to about 76.9 µM), for the others: at the top dose activation (cAMP increase), actives largely listed as activators | actives 0.13% (n = 340,000); active = well fitted activation curve with a large enough effect; inconclusive = small, poorly fitted or top-dose-only effect, or another doubt; inactive = no such curve, though single readings can be large or run the other way; cell line not stated here;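 note: phosphodiesterase inhibitor Ro 20-1724 added with compounds to block cAMP breakdown; potency is the fitted concentration of half-maximal effect; nearly all actives have a fitted effect of over 60% in size; about a fifth of the inactives were tested at one dose only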
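Cells stably selected in G418 were plated at 2000/well, grown 16-24 hr, then given compounds in DMSO with the PDE inhibitor […] (300 uM solution added) for 30 min at 37C; cAMP was read by HTRF.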
Numbers without * were called inactive; u = inconclusive; x = no result given; & = joins results of further samples; [ ] = another dose, or the depositor's remark.

Preview:
Molecule	Menin-MLL FL inh	TRPML1 blocker	ClpP mod	gsp antag	TRPML1 ag	gsp ag
CCOc1ccc(C2CC(c3ccccc3C)n3nc(N)nc3N2)cc1 (configuration not stated)	-1.1	1	-5.9%	1%	0.8	-24%
CSc1nnc(C2CCN(CC(=O)Nc3ccccc3N3CCOCC3)CC2)n1C	x	10	x	-44%	0.1	18%[15.4 µM]
CCS(=O)(=O)NCCc1cc2cc(C)c(C)cc2[nH]c1=O	1.3	18	-6.5%	7%	0.2	u

Results, from the first entry:
Molecule	Menin-MLL FL inh	TRPML1 blocker	ClpP mod	gsp antag	TRPML1 ag	gsp ag
CCOc1ccc(C2CC(c3ccccc3C)n3nc(N)nc3N2)cc1 (configuration not stated)	-1.1	1	-5.9%	1%	0.8	-24%
CSc1nnc(C2CCN(CC(=O)Nc3ccccc3N3CCOCC3)CC2)n1C	x	10	x	-44%	0.1	18%[15.4 µM]
CCS(=O)(=O)NCCc1cc2cc(C)c(C)cc2[nH]c1=O	1.3	18	-6.5%	7%	0.2	u
C=CCn1c(Oc2ccc(C(=O)OC)cc2)nc2c1c(=O)n(C)c(=O)n2C	1.7	5	-0.8%	-5%	2.2	u
COCCNc1nc(C)cc(-c2cc(C(=O)NCc3ccccc3)on2)n1	1.3	-1	-9.0%	4%	-0.2	16%
CCn1cnc2cc(NCc3ccncc3)ccc21	3.1	-1	5.0%	-7%	0.2	-38%
COc1ccc(C(CNC(=O)c2ccc(C)c(S(=O)(=O)Nc3ccccc3OC)c2)N2CCCC2)cc1 (configuration not stated)	u	-4	-5.2%	-9%	-0.4	26%
Cc1cccc(C(=O)c2c[nH]cc2-c2ccccc2)c1	0.9	-3	-4.7%	-3%	0.9	-56%[inhibitor]
CCc1nc2ccccc2c(C(=O)OCC(=O)Nc2ccc(S(=O)(=O)N3CCOCC3)cc2)c1C	2.0	30	0.8%	21%	0.5	-6%
N/C(=N\OC(=O)/C=C/c1ccccc1Cl)c1ccccn1	-4.1	3	-1.0%	2%	4.7	44%
COc1ccc(C(=O)N2CCc3c([nH]c4ccccc34)C2C(F)(F)F)cc1 (configuration not stated)	-1.3	12	-1.4%	-17%	1.2	4%
COc1cc(OC)c(NC(=O)N2CCOc3ccc(C)cc32)cc1Cl	x	25	-1.1%	x	-0.3	x
CC(CNC(=O)C1CCN(C(=O)N2CCOc3ccc(Cl)cc32)CC1)c1ccccc1 (configuration not stated)	x	-5	-0.2%	x	-0.7	x
Cc1n[nH]c(C)c1S(=O)(=O)N1CCN(C(=O)c2ccco2)CC1	0.6	-4	-10%	6%	1.8	10%
O=C(CNC(=O)c1ccccc1)OCN1C(=O)c2ccccc2C1=O	x	9	1.7%	-18%	-1.1	1%
CCn1c(N2CCN(C(=O)c3ccco3)CC2)nc2ccccc21	4.6	9	x	-3%	1.2	-38%[inhibitor]
O=C(NCc1ccccc1Br)c1cccc2c1C(=O)c1ccc(-c3ccc(OC(F)(F)F)cc3)cc1S2(=O)=O	x	-5	-2.6%	8%	0.1	-2%
CC(=O)Nc1ccc(NC(=O)CCOc2cc(C)ccc2C)cc1	x	-7	x	7%	-0.1	-7%
Cn1c(SCC(=O)NC2CCCCC2)nnc1C(F)(F)F	x	10	-0.7%	x	-0.3	2%
Fc1ccccc1OCCSc1ncnc2nc[nH]c12	-4.3	-12	-1.4%	18%	0.5	-12%
CCOc1ccc(OCC)c(NC(=O)C2C3C=CC(O3)C2C(=O)O)c1 (configuration not stated)	x	-12	2.2%	x	-0.7	-26%
O=C(Nc1ccccc1N1CCN(C(=O)c2ccc(Cl)cc2)CC1)c1cc2ccccc2o1	2.9	73	u	-13%	-0.8	-22%
Cc1nc2ccc([N+](=O)[O-])cc2c(=O)n1Cc1cccc(Br)c1	-0.5	2	x	-6%	0.9	-37%[inhibitor]
Cc1cc(N2CCN(S(=O)(=O)c3ccc4ccccc4c3)CC2)n2ncnc2n1	-2.0	-10	-0.1%	0%	-0.2	-8%[15.4 µM]
Oc1cccc(Nc2nc(-c3ccccc3)nc3ccccc23)c1	-0.2	-2&2	-4.6%&-6.0%	-20%	-0.3&1.7	-25%
CCC1CCc2c(sc(NC(=O)c3ccoc3C)c2C(N)=O)C1 (configuration not stated)	-1.4	26	u	-18%	0.2	-17%
Cc1ccc(NC(=S)N2CCC(c3nc4ccccc4s3)CC2)cc1	3.5	9	1.1%	-14%	0.2	-50%
Cc1c(NC(=O)Cc2ccccc2)cccc1C(=O)NN1C(=O)c2ccccc2C1=O	u	10	-0.2%	0%	-0.3	4%
CCOC(=O)N1CCN(C(=O)Cn2nc(-c3ccc(Cl)cc3)ccc2=O)CC1	1.0	5	-17%	3%	3.6	-31%[inhibitor]
COc1ccc(N2CCN(C(=O)CCC(=O)NNc3nc4ccccc4c4nc(C)nn34)CC2)cc1	3.7	-5&21	-3.8%&-2.1%	-19%	-0.8&1.0	-29%
CS(=O)(=O)c1ccc(C(=O)Nc2ccc(S(=O)(=O)N3CCCCC3)cc2)cc1	x	4	-13%	10%	0.1	2%
Cc1cc(C)n(-c2nc3cc(Cl)ccc3nc2Nc2ccc(CC(=O)O)cc2)n1	x	-5	2.8%	x	-0.2	x
NC(N)=Nc1ccc(N=C(N)N)cc1	-0.5	-15	0.6%	-4%	0.3	-11%
CC1CCCN(C(=O)CSc2nnc(-c3cccs3)o2)C1 (configuration not stated)	x	-2	x	-1%	-0.6	3%[15.4 µM]
CSc1nnc2c(n1)OC=Nc1ccc(Br)cc1-2	0.1	37	x	-5%	-1.0	u
O=C(c1ccc(COc2ccc(Cl)cc2)o1)N1CCN(Cc2ccc3c(c2)OCO3)CC1	4.3	5	-0.4%	u	1.4	-3%
CC(C)CC1CCCC12NC(=O)NC2=O (configuration not stated)	x	26	x	2%	-0.3	-15%
CCOc1ccc(CCNC(=O)CCc2nc(-c3ccc(OC)cc3)no2)cc1OCC	4.2	11	25µM*	1%	1.0	0%
O=C1CCN(CCc2ccccc2)CCN1[C@H](CO)Cc1ccccc1	-2.5	16	-4.6%&0.1%	10%	0.5&0.1	x
COc1ccc(N2CCN(C(=O)CSc3n[nH]c(-c4ccccc4Cl)n3)CC2)cc1	x	11	-2.1%	x	0.0	x
CC(=O)Nc1cccc(C(=O)OCC(=O)c2ccc(S(=O)(=O)N3CCCCC3)cc2)c1	x	24	2.9%	-11%	1.7	6%
Cc1cccc(-c2cc3nc4c(c(N5CCOCC5)n3n2)CCCC4)c1	3.4	18	u	-14%	6.4	-47%[inhibitor]
Cc1ccc(-n2ncc3c(NC4CCCCC4)ncnc32)cc1C	x	49	-17%	x	0.0	x
CC1(C)Cc2nc(NCCN3CCOCC3)c(C#N)cc2CO1	4.4	8	-20%	2%	-0.4	26%
O=C(CCCn1c(=O)[nH]c2ccccc2c1=O)NCc1ccccc1Cl	x	19	u	x	-0.4	x
CCOC(=O)c1ccc(NC(=O)CCOc2ccc(OC)cc2)cc1	1.0	-1	-0.9%	-2%	0.6	21%
CCOc1ccc(NC(=O)CCc2c(C)nc3nc(-c4cc(OC)cc(OC)c4)nn3c2C)cc1	x	-5	-3.6%	x	-0.6	x
CC(C)(C)C(=O)Cn1c(=O)n(CCCCCC(=O)NCc2ccc3c(c2)OCO3)c(=O)c2sccc21	x	2	-3.1%	x	2.2	x
CCNC(=O)C1CN(S(=O)(=O)c2ccccc2)CCN1S(=O)(=O)c1ccccc1 (configuration not stated)	2.4	3	-1.6%	-3%	-0.9	-38%[inhibitor]
O=C(O)c1ccccc1C(=O)N1CCc2c([nH]c3ccccc23)C1C(F)(F)F (configuration not stated)	4.8	-24	x	-1%	0.9	20%
Cc1ccc(CNC(=O)c2oc3ccc(S(=O)(=O)N4CCC5(CC4)OCCO5)cc3c2C)cc1	3.8	10	1.1%	-14%	0.6	u
CC(NC(=O)Nc1ccc(F)cc1F)c1ccncc1 (configuration not stated)	2.4	19	1.1%	10%	-0.1	-33%
O=C(Nc1ccncc1)c1ccc(F)cc1	0.5	-15	-1.9%	7%	-0.7	-20%
Cc1cccc(C(=O)OCC(=O)NCc2ccc3c(c2)OCO3)c1C	x	-1	-0.2%	-2%	-1.9	-5%
CC(C)=CCN1CCN(Cc2ccc(C#CC(C)(C)O)s2)CC1CCO (configuration not stated)	1.0	-2	x	8%	0.8	-1%[15.4 µM]
O=C(N/C(=C\c1ccco1)C(=O)N1CCCC(CO)C1)c1ccccc1 (configuration not stated)	4.4	4	x	-23%	0.9	21%[15.4 µM]

(further entries)
Molecule	Menin-MLL FL inh	TRPML1 blocker	ClpP mod	gsp antag	TRPML1 ag	gsp ag
CC(=O)C1=C(C)NC(SCC(=O)c2ccccc2)=C(C#N)C1CC(C)C (configuration not stated)	-0.5	-11	-0.3%	5%	0.4	u
Cc1cccn2c(=O)nc(SCC(=O)N3CCN(c4ccccc4)CC3)nc12	x	-14	-4.7%	7%	0.0	u
O=c1c2ccccc2[nH]c(=S)n1CCCn1ccnc1	-1.9	24	-1.2%	11%	-0.7	21%
Cc1ccc(C(=O)NC(=S)N2CC(C)OC(C)C2)cc1[N+](=O)[O-] (configuration not stated)	-1.5	10	0.3%	5%	0.3	1%
O=C(NCCc1ccc(Cl)cc1)c1nc(-c2cccc(F)c2)n2c1CCCCC2	x	50	-11%	x	0.3	x
C/C(=N\NC(=O)c1cc(-c2ccc(O)cc2)nc2ccccc12)c1cccnc1	2.1	4	-12%	0%	0.4	4%[15.4 µM]
CCCn1cc(CN2CCCC(C(=O)c3cccc(OC(C)C)c3)C2)c(C)n1 (configuration not stated)	-6.0	23	-11%	5%	0.0	u
O=C1NC(=S)SC1=Cc1ccccc1Br	x	5	x	-21%	-0.8	0%
